# AID504770 = E. coli YBA685 growth inhibition, screen for V. cholerae RctB inhibitors | AID 504770 | z-score (test concentration not listed) | 0.27% of 130,000 active | E. coli YBA685 rctB-dependent plasmid, OD600 growth, 3 h; hits give low values;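 active means z-score under -2 on both plates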;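 further: wells of about 30 µL received 100 nL stock; score is relative to mean and SD of the test wells; the first replicate is given; strong numbers were not always called active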
# Ba CapD inh = inhibitors of Bacillus anthracis CapD enzyme; purified CapD enzyme, fluorescence intensity read-out; hits give low values; some hits fall short of the stated cut; z-score (concentration not given with the values); 0.23% of 140,000 active;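 active means z-score under -4 in either of two replicates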;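 further: stock transfer was 100 nL into about 40 µL; score is relative to mean and spread of the plate; one replicate is shown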
# Numbers without * were called inactive; i = inactive; . = not tested or not shown. Not all compounds are listed. The share of hits here may be higher or lower than overall.
# The first 4 records, to show the layout:
SMILES,AID504770,Ba CapD inh
Cc1ccc(NC(=O)CCS(=O)(=O)c2ccc3c(c2)n(C)c(=O)c(=O)n3C)cc1,1.2,-0.8
O=C(O)CCC(=O)Nc1cccc(C(=O)O)c1,-0.2,i
Cc1cc(C)nc(SCc2noc(-c3ccc(Cl)cc3)n2)n1,0.1,.
CN(C1CCCCC1)C(c1ccc(F)cc1)c1nnnn1C1CCCCC1 (stereo not drawn),-0.4,.

# Results, previewed entries included:
SMILES,AID504770,Ba CapD inh
Cc1ccc(NC(=O)CCS(=O)(=O)c2ccc3c(c2)n(C)c(=O)c(=O)n3C)cc1,1.2,-0.8
O=C(O)CCC(=O)Nc1cccc(C(=O)O)c1,-0.2,i
Cc1cc(C)nc(SCc2noc(-c3ccc(Cl)cc3)n2)n1,0.1,.
CN(C1CCCCC1)C(c1ccc(F)cc1)c1nnnn1C1CCCCC1 (stereo not drawn),-0.4,.
COc1ccc(Cl)cc1N1Cc2cc(C)c(C)cc2C1,-0.05,0.3
CCCN(CCC)CCn1cnc2c([nH]c3ccccc32)c1=O,2.4,29
CCOC(=O)Oc1ccc2c(c1)C(C)=CC(C)(C)N2C(=O)OCC,0.05,-0.14
O=S(=O)(NC1c2cccc3cccc(c23)C1N1CCNCC1)c1ccccc1 (stereo not drawn),.,0.095
COc1ccc2c(=O)/c(=C/c3ccc4c(c3)OCO4)oc3cccc1c32,0.1,-0.33
CN1CCN(C)C(C(=O)NNC(=O)OCCc2ccccc2F)C1 (stereo not drawn),.,-0.22
COc1cc([N+](=O)[O-])ccc1N1C(=O)C2C(c3ccc(C)cc3)OC3(C(=O)c4ccccc4C3=O)C2C1=O (stereo not drawn),.,-0.32
CCOC(=O)Cc1csc(NC(=S)NC(=O)c2ccco2)n1,0.15,.
O=C1c2ccccc2NC2(C(=O)N(Cc3ccccc3F)c3ccccc32)N1c1cccc(C(F)(F)F)c1 (stereo not drawn),.,0.34
CC1CCCN(c2nc3nonc3nc2Nc2ccccc2F)C1 (stereo not drawn),.,-0.68
O=C(NCC1COC2(CCCC2)O1)C1CC1 (stereo not drawn),-0.95,.
Cc1c(S(=O)(=O)c2ccc(Cl)cc2)csc1N,0.35,-0.34
CCC(C)(C)C1CCc2c(sc(NC(=O)c3c(-c4ccccc4Cl)noc3C)c2C#N)C1 (stereo not drawn),.,0.41
CN(C)C(=O)CSc1nnc(-c2ccncc2)n1C,0.05,.
Cc1cc(C)c2c(n1)sc1c(=O)n(/N=C/c3cccs3)cnc12,-0.55,-0.42
COc1cc2c(cc1OC)n(CC(=O)NC1CCCC(C)C1C)n1c(C)cc(=O)nc21 (stereo not drawn),1.4,-0.37
O=C(Nc1nc2c(ncn2C(CO)OC(CO)CO)c(=O)[nH]1)c1ccccc1 (stereo not drawn),-0.4,0.35
O=S1(=O)c2cccc3cccc(c23)N1Cc1ccccn1,0.35,24
CSc1nnc(-c2ccccc2NC(=O)c2ccccc2)c(=O)[nH]1,0.05,-2.6
O=c1[nH]c(SCc2ccccc2)nc2ccccc12,0.5,0.22
COc1cccc(CN(CC2CCCO2)C(=O)NCCOc2ccccc2)c1 (stereo not drawn),.,-0.42
COc1cc(/C=N\S(=O)(=O)c2cccs2)cc(Br)c1O,0.05,-1.9
Cc1[nH]nc(-c2ccc(O)cc2O)c1-c1nc2ccccc2s1,-1.4,23
CC1CCN(CN2C(=O)C3(OCCCO3)c3ccccc32)CC1,-1.7,-1.3
O=C(Nc1ccc(F)cc1)c1cccc(OC(=S)Nc2cccc(Br)c2)c1,-1.1,0.06
N=C1S/C(=C\c2ccco2)C(=O)N1c1ccc(Oc2ccccc2)cc1,0.5,-0.19
Cc1cc(=O)[nH]c(-c2cccs2)n1,-0.3,0.32
COC(=O)c1ccc2c(c1)nnn2C(C)C,-0.9,0.08
O=C1CCCC/C1=C\Nc1ccc(Cl)cn1,-0.7,-1.5
O=C(O)/C=C/c1ccc(S(=O)(=O)Nc2cccnc2)cc1,-0.55,i
Cc1ccc(S(=O)(=O)/C=C2\NC(=O)CS2)cc1,-0.35,.
CCOC(=O)c1sc2nc(CSc3nc4ccccc4c(=O)n3CCOC)[nH]c(=O)c2c1C,-0.1,.
CN1C(=O)C2C(C1=O)C1(C)C=CC2(C)O1 (stereo not drawn),0.25,.
O=C(O)c1nn(CC(=O)N2CCCCCC2)c(=O)c2ccccc12,0.5,.
c1csc(-c2cc3ccccn3c2)c1,0.05,7.6
O=C(NCC1CCCO1)C1CCN(S(=O)(=O)N2CCOCC2)CC1 (stereo not drawn),-0.3,0.11
CN(Cn1nc(-c2ccc3c(c2)OCO3)oc1=S)C1CCCCC1,2.5,.
Nc1nc(-c2ccc(Cl)s2)cs1,.,-0.21
Cc1ccc(N=c2oc3ccc4ccccc4c3cc2-c2nc(-c3ccc(Br)cc3)cs2)cc1,.,0.55
O=C1CC(SCc2ccc(Cl)cc2)C(=O)N1c1ccccc1 (stereo not drawn),-0.15,-0.18
O=C(NCc1ccc(F)cc1)c1cc(C2CC2)on1,0.8,-0.56
COc1cccc(C2C3CN(C(C)C)CC=C3C(C#N)=C(N)C2(C#N)C#N)c1OC (stereo not drawn),.,5.3
CCOC(=O)CCc1c(C)c2cc(Cl)c(OCC(N)=O)cc2oc1=O,-0.25,46
COC(=O)c1sc2ccccc2c1NC(=O)c1ccccc1,0.9,0.73
CC1CCCC(C)N1C(=O)CSc1nncn1C (stereo not drawn),1.2,.
O=C1CC(=O)N(c2cccc(F)c2)C(=S)N1,0,0.29
COc1ccc(C2Nc3ccccc3C(=O)N2c2ccc(F)cc2)cc1Cn1nnc2ccccc21 (stereo not drawn),.,8.5
CN1CCN(c2ccc(NC(=O)CCN3C(=O)CSc4ccccc43)cc2)CC1,1,.
O=C1C2CCCC2=NN1c1ccccc1 (stereo not drawn),0.6,.
CCOC(=O)CSc1nc(Nc2ccc(F)cc2)c2ccccc2n1,.,0.94
Cc1cccc(-c2cc3nc4c(c(NCCN(C)C)n3n2)CCC4)c1,1.5,.
CCOc1ccccc1CNC(=O)OCc1cccc(OCc2ccccc2)c1,.,0.89
COc1ccc(Cl)cc1C(=O)OCC(=O)N1CCN(C(=O)COC(=O)c2cc(Cl)ccc2OC)CC1,0.2,.
COc1ccc2c(c1)N(C)/C(=c1/s/c(=C3\SC(=S)N(C4CCCCC4)C3=O)n(C3CCCCC3)c1=O)S2,.,-0.26
COc1cccc(CNS(=O)(=O)c2c(C)nc3sccn3c2=O)c1,-0.5,3
CCCn1c(SCc2csc(-c3ccccc3)n2)n[nH]c1=O,-0.3,.

# Full records, looked up by structure:
# `O=C(NCc1ccc(F)cc1)c1cc(C2CC2)on1` is listed with AID504770: 0.8; Ba CapD inh: -0.56
# `Cc1ccc(N=c2oc3ccc4ccccc4c3cc2-c2nc(-c3ccc(Br)cc3)cs2)cc1` is listed with AID504770: .; Ba CapD inh: 0.55
# `CC1CCCC(C)N1C(=O)CSc1nncn1C` (stereo not drawn) is listed with AID504770: 1.2; Ba CapD inh: .

# Going on with the list:
SMILES,AID504770,Ba CapD inh
Cc1cc(C(=O)N2C(C)CCCC2C)no1 (stereo not drawn),-1.1,-0.46
COCCOC(=O)C1=C(C)NC2=C(C(=O)CC(c3ccc(Cl)cc3)C2)C1c1cccc(OC)c1OC (stereo not drawn),.,10
CC(NCc1ccc2c(c1)OCO2)C(=O)NC1CCCCC1 (stereo not drawn),-0.45,.
Cc1ccc(C(=O)N/C(=C\c2ccccc2)C(=O)NCCCn2ccnc2)cc1,.,-0.23
CC(C)N(Cc1ccccc1)C(=O)c1ccc(OC(F)(F)F)cc1,0,-0.35
Cc1ccc(NS(=O)(=O)c2ccc(C)c(C(=O)OCC(=O)NCc3ccco3)c2)cc1,-0.85,.
S=C(NC1CC2CCC1C2)NN1C2CSC1CS2 (stereo not drawn),0,0.4
C=CCNc1ncnc2cc(OC)c(OC)cc12,-0.05,12
COC(=O)c1ccc2c(=O)n(C3CCCCC3C)c(=S)[nH]c2c1 (stereo not drawn),-0.15,7.1
O=C(OCc1cc(-c2ccc(Cl)c(Cl)c2)on1)c1c(F)cccc1F,.,-0.47
Cc1ccccc1CN1CCC(N2CCCCC2)CC1,-0.6,0.26
CN(C)c1ccc(/C=C/C=C2\SC(=Nc3ccccc3)NC2=O)cc1,.,-0.33
O=C(CSc1nc2c(c(=O)n1Cc1ccccc1)SCC2)N1CCCC1,-1,.
COC(=O)c1sccc1NC(=O)c1ccno1,-0.5,-1.4
CCN1CCN(S(=O)(=O)/C=C/c2ccccc2)CC1,-1.3,0.11
Cc1ccc2c(c1)N(CC(=O)NCCc1ccccc1)C(=O)c1cccnc1O2,-0.2,-1.1
CCOC(=O)c1c(C)[nH]c(=S)c(C#N)c1-c1ccc(OC)cc1,-0.05,-2.4
NNC(=O)CN1C(c2ccccc2)=Nc2ccc(Br)cc2C1c1ccccc1 (stereo not drawn),.,-0.51
Cc1ccc(/C=C2/SC(=O)N(CCC(=O)Nc3c(C)n(C)n(-c4ccccc4)c3=O)C2=O)cc1,.,0.34
COCCNC(=O)CC(C)(C)n1cccc1,.,-0.34

# Quoted at random: 2 compounds from above
SMILES,AID504770,Ba CapD inh
CN(C)c1ccc(/C=C/C=C2\SC(=Nc3ccccc3)NC2=O)cc1,.,-0.33
O=C(CSc1nc2c(c(=O)n1Cc1ccccc1)SCC2)N1CCCC1,-1,.

# Back to the main list; the 6 compounds before the break are reprinted first.
SMILES,AID504770,Ba CapD inh
CCN1CCN(S(=O)(=O)/C=C/c2ccccc2)CC1,-1.3,0.11
Cc1ccc2c(c1)N(CC(=O)NCCc1ccccc1)C(=O)c1cccnc1O2,-0.2,-1.1
CCOC(=O)c1c(C)[nH]c(=S)c(C#N)c1-c1ccc(OC)cc1,-0.05,-2.4
NNC(=O)CN1C(c2ccccc2)=Nc2ccc(Br)cc2C1c1ccccc1 (stereo not drawn),.,-0.51
Cc1ccc(/C=C2/SC(=O)N(CCC(=O)Nc3c(C)n(C)n(-c4ccccc4)c3=O)C2=O)cc1,.,0.34
COCCNC(=O)CC(C)(C)n1cccc1,.,-0.34
COC(=O)c1c(NC(=O)Cc2cccs2)sc2c1CCCC2,1.4,.
O=C(Nc1nnc(-c2ccco2)o1)c1ccc(S(=O)(=O)N2CCCc3ccccc32)cc1,0.25,.
Cc1ccc(C2=NN(S(C)(=O)=O)C(c3ccc4nccnc4c3)C2)cc1 (stereo not drawn),0.35,11
COc1ccc(-c2c(C(F)(F)F)oc3cc(O)ccc3c2=O)cc1,0.25,-0.67
COc1ccc(C(=O)C(C)Sc2nc3ccccc3n2C)c(OC)c1 (stereo not drawn),-0.1,.
CCOc1ccccc1C(=O)NNC(=O)CCC(=O)c1ccccc1,.,0.34
COc1ccc(Br)cc1/C=C1\N=C(c2ccc([N+](=O)[O-])cc2Cl)OC1=O,.,0.38
Cc1nn(Cc2ccccc2Cl)c2sc(C(=O)N3CCc4ccccc43)cc12,0.75,.
O=[N+]([O-])c1cc(/C=N/O)ccc1SCc1cccc(C(F)(F)F)c1,.,-0.44
Nn1c(-c2ccco2)n[nH]c1=S,1.2,.
CC(=O)O/N=C/c1ccc2c(c1)CCO2,0.6,0.9
c1ccc2sc(N3CCOCC3)nc2c1,-0.75,0.1
Cc1cc2c3c(c1)c(O)c(-c1ccccc1)c(=O)n3CCC2,.,4.3
COc1cc(C=C2C(=O)N(C)C(=O)N(C)C2=O)ccc1Oc1ccc([N+](=O)[O-])cc1C#N,.,-0.72
C/C(=N\NC(=O)c1ccc(O)cc1)c1ccc(S(=O)(=O)NCc2ccco2)cc1,0.15,.
CCOc1ccc(NC(=O)C2CC(=O)N(Cc3ccc4c(c3)OCO4)C(=Nc3ccc(OC)cc3)S2)cc1 (stereo not drawn),.,-0.23
CNC(=O)Cc1csc2ccc(C)cc12,0.05,-0.09
O=C(NC12CC3CC(CC(C3)C1)C2)c1ccco1,-0.3,.
O=C(Nc1ccc(-c2nc3ccccc3o2)cc1)c1ccc(C(=O)c2ccccc2)cc1,1.5,-0.35
O=C1CCC(C(=O)Nc2nnc(Cc3ccccc3)s2)=NN1,0.55,.
O=C(COc1ccccc1)N1c2ccccc2Sc2ccccc21,-0.25,1.2
CCOCc1c[nH]c(=O)[nH]c1=O,-0.15,-0.045
Cc1ccc(-n2c3c4c(nc(N5CCOCC5)c(C#N)c4c(C#N)c2=S)NC2(CCCCC2)N3)cc1,0.2,.
N#CCC(=O)c1ccc(Br)cc1,-0.75,-1.8
CC(C)(C)c1ccc(-c2noc(-c3ccccc3)n2)cc1,0.6,0.36
O=C(OCc1cccs1)c1cccnc1Cl,0.3,0.45
CN(CCc1ccccn1)C(=O)c1cc2c(s1)-c1ccccc1OC2,0.85,80
CCCCn1c(=S)[nH]c2ccccc2c1=O,-0.55,-2.2
O=C(c1ccccc1S(=O)(=O)NCc1ccccc1)N1CCCC1,-0.05,-0.74
COc1ccc(OCC(=O)N2CCN(c3ccccc3)CC2)cc1,-0.85,0.2
CCn1c(=O)c2sccc2n2c(CCCC(=O)N3CCN(c4ccccc4)CC3)nnc12,-0.6,-0.08
CCn1c(C(=O)O)c(CC(=O)N2CCN(Cc3ccccc3)CC2)c2ccccc21,.,0.07
COc1cc2c(cc1OC)C(c1ccccc1)N(C(=O)Cn1cnnn1)CC2 (stereo not drawn),0.6,.
O=C(NCc1ccccc1)/C(=C/c1ccco1)NC(=O)c1ccco1,-0.7,.
O=C1CCCN1CC12CC3CC(CC(C3)C1)C2,-1.7,0.64
Cc1nc(SCC(=O)N(C)c2ccccc2)nc(C)c1C,0.1,.
Cc1nnc(NC(=O)CSc2nccn2-c2ccccc2)s1,2.5,-0.61
Cc1cc(SCC(=O)O)n2nc(C)c(-c3ccc(Cl)cc3)c2n1,1.6,-0.095
C=CCNC(=O)C(C)Sc1nnc2c(n1)[nH]c1ccccc12 (stereo not drawn),-0.25,.
NC(=O)c1ccccc1OCC1CC1,-0.45,-0.32
CC1CN(C(=O)CCc2ccccc2)C(C)CN1C(=O)CCc1ccccc1 (stereo not drawn),-1.2,0.23
